Assay outcomes (PubChem)
VDR inhibitor = vitamin D3 receptor (human) inhibition | AID 504847 | Potency, µM, for the others: max response, negative = inhibition, hits mostly inhibitors | P11473 | 400,000 compounds, 0.93% hits | VDR-SRC2-3 peptide fluorescence polarization, 2 h; active means well fitted inhibition curve with a large enough effect; inconclusive means small, poorly fitted or top-dose-only effect, or another doubt; inactive means no such curve, though single readings can be large or run the other way; further: series mostly up to about 120 µM
Target sequence (P11473 whole entry, looked up): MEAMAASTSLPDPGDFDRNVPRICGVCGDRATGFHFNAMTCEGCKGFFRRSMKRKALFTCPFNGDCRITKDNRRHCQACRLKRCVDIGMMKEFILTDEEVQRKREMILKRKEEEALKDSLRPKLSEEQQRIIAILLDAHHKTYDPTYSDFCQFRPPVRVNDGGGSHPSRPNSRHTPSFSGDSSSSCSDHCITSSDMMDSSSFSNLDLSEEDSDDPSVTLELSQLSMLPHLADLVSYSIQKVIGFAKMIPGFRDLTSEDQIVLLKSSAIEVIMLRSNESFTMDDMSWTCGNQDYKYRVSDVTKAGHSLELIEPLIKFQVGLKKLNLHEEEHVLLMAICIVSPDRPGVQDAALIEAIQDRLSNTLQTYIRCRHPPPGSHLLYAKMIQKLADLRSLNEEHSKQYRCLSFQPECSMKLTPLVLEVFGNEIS
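Two reagent solutions held at 4 deg C in the dark were dispensed, compounds pinned at 23 nl, and the mixture incubated 2 h at room temperature. Read-out: fluorescence polarization of VDR–SRC2-3 peptide binding.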
* marks the source's active call; other numbers are inactive results; ? = inconclusive; & = joins results of further samples; [ ] = another dose, or the depositor's remark. On the % scale 0 is the no-effect control and ±100 the full control effect; potency means the concentration at half of the fitted maximal effect. These rows are one share of the data; count on the stated rates, not on these rows.

SMILES	VDR inhibitor
CC1CC(=O)Nc2cc([N+](=O)[O-])ccc2N1 (stereo not drawn)	5%
O=C(c1cc(S(=O)(=O)N2CCOCC2)c(Cl)cc1Cl)N1CCCC1	-3%
Cc1ccc(Nc2cc(C)nc3nc(C)nn23)cc1	-8%
CC(C)CNC(=O)CC(=O)NN=C1CCCC1	-8%
COc1ccc(Br)cc1CN1CCN(C(=O)c2ccco2)CC1	-7%
CCC(C)(C)n1nnnc1C(c1cccc(C#N)c1)N1CCN(c2cccc(C)c2C)CC1 (stereo not drawn)	7%
Cc1cccc(NC(=O)CSc2nnc(C)c(C)n2)c1	-26%
Cn1cc(CN2CCC(n3nccc3NC(=O)c3ccccc3Cl)CC2)cn1	-10%
CCN1C(=O)[C@H]2[C@@H](c3ccc(SC4CCCCC4)cc3)N3CCCC[C@@]3(C(=O)OC)[C@H]2C1=O	0%
COc1ccccc1CCNC(=O)C(=O)NCC1CCCN1S(=O)(=O)c1ccccc1 (stereo not drawn)	11%
C1CCc2c(nc3nnnn3c2NCC2CC2)C1	-13%
COc1ccc(Cc2nnc(SCC(=O)Nc3ncc(C)s3)o2)cc1	-5%
Cc1ccccc1S(=O)(=O)Cc1ccc(C(=O)NCc2ccc(F)cc2)o1	1%
Cc1ccc(OCC(=O)Oc2ccc(C)c(C)c2)cc1	-6%
CCCCC(=O)NC(=S)Nc1ccc(NC(=O)C(C)C)c(OC)c1	-5%
COc1cc(NC(=O)c2cc(Cl)ccc2Cl)ccc1-c1cc2ccccc2oc1=O	-4%
CC1CCCN(CCOCCOc2ccccc2-c2ccccc2)C1 (stereo not drawn)	-11%
CCOc1ccccc1NC(=O)Cn1c(=O)n(Cc2ccccc2)c(=O)c2c1c1cc(C)ccc1n2C	-4%
Cn1nccc1C(=O)NC1CCCc2c1cnn2-c1ccccc1F (stereo not drawn)	-12%
Cc1cc(C(F)(F)F)c2sc(N)nc2n1	10%
O=C(NC1CCCC1)C(c1ccccc1)N(C(=O)c1csnn1)C1CCCC1 (stereo not drawn)	4%
COc1ccc2c(c1)sc(N)[n+]2Cc1cc(C)cc2cccnc12	-27%
Cc1cc(C(=O)NC(Cc2ccccc2)C(=O)O)c(C)o1 (stereo not drawn)	-10%
O=C(Nc1cccc(Cl)c1)N1CCSc2ccccc21	5%
COc1ccc(CC2(CO)CCN(Cc3cccc(OC)c3OC)CC2)cc1	16%
O=C(O)C1CCC(=O)N(C2CCCCC2)C1c1ccccc1Cl (stereo not drawn)	-12%
COc1ccc(OC)c(CCNC(=O)CCc2nnc3ccc(N4CCCCC4)nn23)c1	-1%
COc1c(O)cnn(-c2ccccc2)c1=O	5%
CCCn1c2ccccc2c2cnn(CC(=O)NCCc3ccc(S(N)(=O)=O)cc3)c(=O)c21	3%
COc1ccc(CCC(=O)Nc2ccc(S(=O)(=O)Nc3ncccn3)cc2)cc1	5%
NC(=O)C1CCN(C(=O)c2cc(-c3ccccc3Cl)nc3ccccc23)CC1	-3%
CCOc1ccc(N(CC(=O)NC2CCCC2)C(=O)c2ccc(C)s2)cc1	3%
CCOC(=O)c1ccc([N+](=O)[O-])c(CS(=O)(=O)c2ccc(Cl)cc2)c1	10%
O=C(COC(=O)c1ccc(Br)cc1)NCc1ccc(F)cc1	5%
Cn1ccc2cc(NC(=O)Nc3cccnc3)ccc21	-18%&-6%&-1%
O=C(CCCn1c(=S)[nH]c2ccsc2c1=O)Nc1ccc2c(c1)OCCO2	-17%

Fetched by structure from above:
SMILES	VDR inhibitor
CCCn1c2ccccc2c2cnn(CC(=O)NCCc3ccc(S(N)(=O)=O)cc3)c(=O)c21	3%
NC(=O)C1CCN(C(=O)c2cc(-c3ccccc3Cl)nc3ccccc23)CC1	-3%

(continued)
SMILES	VDR inhibitor
C=CCn1cc(C(C)=O)c(=O)[nH]c1=O	-5%
CCc1ccc(CN(C)C(=O)c2cc(S(=O)(=O)N3CCOCC3)ccc2N2CCCC2)cc1	-8%
Cc1cc(Cl)ccc1N(CC(=O)NCc1ccccc1)S(C)(=O)=O	-10%
COc1ccc(-n2c(=S)[nH]c3[nH]ncc3c2=O)cc1	-3%
CN1CCN(C(=S)NC(=O)c2ccc(-c3ccccc3)cc2)CC1	-7%
COC(=O)c1cc(C(=O)OC)cc(-n2c(C)cc(C(=O)CC#N)c2C)c1	2%
COc1cc(/C=N/NC(=O)CCn2cnc(-c3ccccc3)c2-c2ccccc2)ccc1O	-16%
CN1CCN(C(=O)c2ccc(N3CCCC3=O)cc2)CC1	5%
COc1ccc(Oc2ncc3ncc(=O)n(Cc4cccs4)c3n2)cc1	-10%
CCOC(=O)NC1(C(F)(F)F)NC(=O)N(C2CCCCC2)C1=O (stereo not drawn)	-1%
CN(C)S(=O)(=O)c1cccc(NC(=O)CSc2nnnn2-c2ccccc2)c1	-9%
CCC(=O)N=c1sc2c(OC)ccc(OC)c2n1C	-12%
Cc1cccc(N2CC(C(=O)Nc3ccc(N4CCOCC4)cc3)CC2=O)c1C (stereo not drawn)	4%
COc1ccc(C(=O)Oc2cc(-c3ccc(OC)c(OC)c3)cc(=O)c3c(C)oc(C)c23)cc1	12%
O=C1NC(c2cccc([N+](=O)[O-])c2)=CCN1c1ccccc1O	2%&0%
CCCC1CC(C)(C(=O)CSc2n[nH]c(-c3ccccc3)n2)OC1=O (stereo not drawn)	0%
CC(=O)Nc1ccc(Oc2nc(-c3cccnc3)nc3sc4c(c23)CCCC4)cc1	-7%
O=C(NC1CCCCC1)c1cccc2c1C(=O)c1ccc(N3CCC(Cc4ccccc4)CC3)cc1S2(=O)=O	-14%
CCc1nn2c(=O)cc(COc3cccc(NC(=O)c4ccco4)c3)nc2s1	?
Cc1cccc(NS(=O)(=O)c2ccc(Cl)c(C(=O)Nc3ccccc3C)c2)c1	-8%
Cc1nn(C)c2c(=O)c(=O)c2n(C)[nH]1	8%
O=C1CC(N2CCOCC2)C(=O)N1c1ccccc1Cl (stereo not drawn)	-14%
COc1cccc(/C=N/NC(=O)CN(C)S(=O)(=O)c2ccccc2)c1OC	-21%
CCOC(=O)c1c(C)[nH]c(C)c1C(=O)COC(=O)/C=C/c1cccc(C(F)(F)F)c1	-14%
CSC1=NCCN1S(=O)(=O)c1ccc(C)cc1	-8%
CCOC(=O)NN1C(=O)c2ccccc2NC1(C)C	-14%
c1ccc(-c2nc(C3CCCCC3)c3sccc3n2)cc1	-12%
O=C1NCCN1C(=O)C12CC3CC(CC(C3)C1)C2	-6%
COc1cccc([C@@H]2Oc3ccc(OC)cc3C(=O)[C@H]2OC(=O)NCCc2ccc(OC)c(OC)c2)c1	6%
O=C(N/C(=C/c1ccccc1Cl)C(=O)N1CCCC1)c1ccccc1	-13%
O=C(c1ccc2snnc2c1)N1CCN(c2ccccc2)CC1	23%
Cc1cc2nc(SCCN3CCCC3)[nH]c2cc1C	-4%
O=c1cc(-c2ccccc2)nc2nc(SCc3ccccc3)[nH]n12	-8%
CN(C)S(=O)(=O)c1ccc(N2CCCC2)c(C(=O)NCC2COc3ccccc3O2)c1 (stereo not drawn)	-1%
CC(C)C[C@@H](CO)N(Cc1ccccc1)S(=O)(=O)N(Cc1ccccc1)[C@@H](CO)CC(C)C	8%
CCn1c(CC(=O)Nc2ccccc2C)nnc1SCC(=O)Nc1nncs1	7%
CN(c1c(C#N)c(C(F)(F)F)nn1C)N(S(C)(=O)=O)S(C)(=O)=O	3%
Cc1cc(NC(=O)c2cccc(Cl)c2)ccc1-c1cc2ccccc2oc1=O	-3%
Cc1ccc(NC(=O)C2CCN(c3nnc(C)c4c(C)n(-c5ccccc5)nc34)CC2)c(Cl)c1	7%
CC(C)CNS(=O)(=O)c1ccc(C(=O)Nc2ccc3c(c2)OCCO3)cc1	-7%
CC(=O)NC1C(=O)N(CCc2ccccc2)c2ccccc21 (stereo not drawn)	-7%
Cc1ccc2nc(-c3cccnc3)cc(C(=O)N3CCN(c4ccc([N+](=O)[O-])cc4)CC3)c2c1	-6%
O=C(CS(=O)(=O)Cc1ccccc1)N1CCc2ccccc2C1	-6%
CCOC(=O)c1c(-c2ccccc2)oc2ccc(O)cc12	2%
COc1ccc(OC)c(/C=N/NC(=O)C(O)c2ccccc2)c1 (stereo not drawn)	-1%
Cc1ccc(C)c(N2CCN(C(=O)COc3cc(=O)n(C)c4ccccc34)CC2)c1	-12%
CC(=O)N[C@@H](CS)C(=O)O	-14%&-19%&1%
CCc1cc2c(=O)c(-c3nc4ccccc4n3C)c(C)oc2c(CN2CCCCC2)c1O	-7%
Cc1noc(C)c1COC(=O)CCCc1nc2ccccc2s1	8%
CCOc1ccccc1-n1nnc(-c2nc(-c3ccccc3)no2)c1N	4%
CC(C)CN(C(=O)COC(=O)CSc1ccccc1)c1c(N)n(Cc2ccccc2)c(=O)[nH]c1=O	-26%
CCn1c(SCC#N)nc2c(c1=O)C1(CCCC1)Cc1ccccc1-2	-8%
COc1ccc(N2CCN(C(=O)c3ccc4c(c3)CCN4S(C)(=O)=O)CC2)cc1	9%
CCO[C@@H]1OC(C(=O)N2CCOCC2)=C[C@H](C(C)(C)C)[C@H]1CCCO	-14%
CC1=C(C(=O)Nc2ccccc2)C(c2ccccn2)n2ncnc2N1 (stereo not drawn)	13%
O=C(CSc1nc2ccccc2c(=O)[nH]1)c1ccc(O)c(O)c1	10%
CCOC(=O)c1ccc(NC(=O)C2C3C=CC(C3)C2C(=O)O)cc1 (stereo not drawn)	14%
S=c1nc[nH]c2c1sc1nc(-c3ccccc3)c3c(c12)CCCC3	2%
c1ccc(-c2cc(N3CCCCCC3)n[nH]2)cc1	112%[activator]
Cc1c2c(nc3c(C)cccc13)OC(C)C2 (stereo not drawn)	-8%
New compounds follow
SMILES	VDR inhibitor
CCCC(c1nnnn1C(C)(C)C)N1CCN(Cc2ccccc2OC)CC1 (stereo not drawn)	8%
CCOc1ccc(NC(=O)c2csc3c2CCCC3)cc1	-21%
Cc1cccc(C(=O)NCc2nnc(SCC(=O)Nc3nncs3)n2C)c1	33%[activator]
c1ccc2c(c1)nc(-c1ccncc1)n1nnnc21	10%
COC(=O)CSC1=C(C#N)C(=O)NC2(CCCCC2)S1	?
CN(N)c1nc2ccccc2nc1C(F)(F)F	-25%
O=C(CSc1cn(CC(=O)N2CCCCC2)c2ccccc12)Nc1ccccc1	-3%
COc1cc(-c2nc3ccccn3c2NCC2CCCO2)ccc1O (stereo not drawn)	2%
COc1ccc(C(=O)NNC(=O)C23CC4CC(CC(C4)C2)C3)c(OC)c1	-24%
Cc1ccc(N2C(=O)C(F)(F)C2c2ccccc2)cc1 (stereo not drawn)	16%
CCNc1ncc2nc(-c3ccc(OC)cc3)c(=O)n(CCc3ccccc3)c2n1	-12%
CC(C)Cn1c(N)c(C(=O)COC(=O)c2cc(F)cc(F)c2)c(=O)n(C)c1=O	-2%
COCCOC(=O)c1c(C)oc2ccc(OCc3cc(C(=O)OC)oc3C)cc12	-3%
CCOC(=O)CN1C(=O)CN(c2ccc(C)c(C)c2)C1=O	5%
C=C(C(=O)Oc1c(C(C)(C)C)cccc1C(C)(C)C)c1ccccc1	-18%
Cc1noc(C)c1COc1ccc(C(=O)N2CC(C)CC(C)C2)cc1 (stereo not drawn)	1%
Cc1nc2c(-c3ccc(F)cc3)c(C)nn2c(C)c1CCC(=O)NCCN1CCOCC1	1%
CC(=O)c1cccc(OCC(=O)Nc2cc(Cl)ccc2-n2cncn2)c1	-9%
O=C(CNc1ccc(Oc2ccccc2)cc1)N1CCOCC1	7%
COc1ccc(CNC(=O)CN2C(=O)c3cccnc3Oc3ccc(C)cc32)cc1	3%
O=C(Nc1cccc2ccccc12)c1ccccc1	1%
COc1ccc2[nH]c(=O)c(CN(C(=O)c3cccnc3)c3cccc(C)c3)cc2c1	?
CCCOc1ccc(C(CC(=O)O)NC(=O)C23CC4CC(CC(C4)C2)C3)cc1 (stereo not drawn)	2%
CC(C)(C)c1ccc(C(=O)NNc2cc(Cl)cc(Cl)c2)cc1	5%

The final 5 records of the part above open the next one.
SMILES	VDR inhibitor
COc1ccc(CNC(=O)CN2C(=O)c3cccnc3Oc3ccc(C)cc32)cc1	3%
O=C(Nc1cccc2ccccc12)c1ccccc1	1%
COc1ccc2[nH]c(=O)c(CN(C(=O)c3cccnc3)c3cccc(C)c3)cc2c1	?
CCCOc1ccc(C(CC(=O)O)NC(=O)C23CC4CC(CC(C4)C2)C3)cc1 (stereo not drawn)	2%
CC(C)(C)c1ccc(C(=O)NNc2cc(Cl)cc(Cl)c2)cc1	5%
Cc1ccc2c(c1)Sc1ccccc1CC2=O	-7%
COC(=O)CN(c1ccc(C)c(Cl)c1)S(C)(=O)=O	0%
CC(C(=O)NCc1cccc(Cl)c1)N1C(=O)c2ccccc2C1=O (stereo not drawn)	1%
CCCN1CCN(CCCNC(=O)c2ccc3c(Cl)c4c(nc3c2)CCCC4)CC1	-3%
COc1ccc(NC(=O)CCNS(=O)(=O)c2cccc3nonc23)c(OC)c1	11%&-21%
O=C(NCCN1CCN(c2cccc(Cl)c2)CC1)c1ccc(CSc2nc3ccncc3[nH]2)cc1	-3%
O=C(O)c1cccc2c1C(=O)N(C1CCCCC1)C2	1%
CCOC(=O)c1c(SCC(=O)Nc2nc3ccccc3s2)nc(=O)[nH]c1C	-4%
Cc1cccc(NC(=O)CN(C2=NC3CS(=O)(=O)CC3S2)c2ccccc2F)c1 (stereo not drawn)	-3%
O=C(c1cnn2ccccc12)N1CCc2ccccc21	-12%

Five of these compounds, set out differently.
VDR inhibitor	smiles
11%&-21%	COc1ccc(NC(=O)CCNS(=O)(=O)c2cccc3nonc23)c(OC)c1
-3%	O=C(NCCN1CCN(c2cccc(Cl)c2)CC1)c1ccc(CSc2nc3ccncc3[nH]2)cc1
1%	O=C(O)c1cccc2c1C(=O)N(C1CCCCC1)C2
-4%	CCOC(=O)c1c(SCC(=O)Nc2nc3ccccc3s2)nc(=O)[nH]c1C
-3%	Cc1cccc(NC(=O)CN(C2=NC3CS(=O)(=O)CC3S2)c2ccccc2F)c1 (stereo not drawn)
